Compound activity as filed in PubChem BioAssay.
DT40 TDP1 CPT = qHTS for Inhibitors of human tyrosyl-DNA phosphodiesterase 1 (TDP1): qHTS in cells in presence of CPT; chicken DT40 Tdp1-/-;hTDP1 cells + 20 nM CPT, ATP luminescence, 48 h; Potency, µM (top dose mostly 46.2 µM), for the others: top-dose activity change, negative = growth inhibition, usual class: inhibitors; 420,000 tested, 12% active; AID 686979, 2013; further: nearly all actives have a fitted effect of over 55% in size
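Chicken DT40 Tdp1-/- cells complemented with human TDP1, 400 cells/well, exposed to compounds plus 20 nM camptothecin for at least 48 h at 37 C; viability read as ATP content by CellTiter-Glo luminescence.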
KAT2A inh = qHTS Assay for Inhibitors of GCN5L2 | Potency, µM (highest dose often 58.9 µM), for the others: top-dose activity change, negative = inhibition, actives largely listed as inhibitors | GCN5L2 HAT assay, ThioGlo1 CoA-SH fluorescence | Histone acetyltransferase KAT2A (Homo sapiens), Q92830 | 390,000 tested, 0.21% active | AID 504327, 2011
Target sequence (Q92830 whole entry, looked up): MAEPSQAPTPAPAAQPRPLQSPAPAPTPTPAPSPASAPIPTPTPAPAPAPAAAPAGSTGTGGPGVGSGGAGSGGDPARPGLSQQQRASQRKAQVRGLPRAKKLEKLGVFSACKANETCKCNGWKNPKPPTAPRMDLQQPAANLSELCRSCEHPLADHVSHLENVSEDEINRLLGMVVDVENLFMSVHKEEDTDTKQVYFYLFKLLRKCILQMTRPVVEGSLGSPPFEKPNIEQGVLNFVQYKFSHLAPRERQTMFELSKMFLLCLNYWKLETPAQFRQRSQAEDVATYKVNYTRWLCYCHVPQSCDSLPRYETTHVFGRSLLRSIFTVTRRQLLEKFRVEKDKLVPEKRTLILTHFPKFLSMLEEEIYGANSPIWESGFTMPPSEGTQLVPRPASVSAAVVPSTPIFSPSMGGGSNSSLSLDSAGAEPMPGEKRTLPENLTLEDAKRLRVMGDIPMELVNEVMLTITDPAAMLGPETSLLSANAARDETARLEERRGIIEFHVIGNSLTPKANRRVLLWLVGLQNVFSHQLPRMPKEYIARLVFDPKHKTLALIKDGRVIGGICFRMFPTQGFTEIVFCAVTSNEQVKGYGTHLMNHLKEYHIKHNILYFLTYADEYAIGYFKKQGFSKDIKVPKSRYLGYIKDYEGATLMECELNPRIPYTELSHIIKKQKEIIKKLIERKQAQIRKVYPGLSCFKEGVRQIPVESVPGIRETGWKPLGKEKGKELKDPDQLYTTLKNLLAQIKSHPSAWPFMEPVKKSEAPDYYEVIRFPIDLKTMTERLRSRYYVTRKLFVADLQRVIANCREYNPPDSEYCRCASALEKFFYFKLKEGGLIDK
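GCN5L2 (20nM final) in 50mM HEPES, 0.1mM EDTA pH 7.5, 0.01% Tween-20 was preincubated 15 min at room temperature with compound, then given ThioGlo1 (50uM), H3(1-25) peptide (75uM) and acetyl-CoA (70uM); CoA-thiol fluorescence (Ex340/Em540) was read at 0 and 20 min.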
Numbers without * were called inactive; ? = inconclusive; . = not tested or not shown; & = joins results of further samples. The call rests on the fitted dose curve; in most records, active means well fitted curve in the direction sought with a large enough effect; inconclusive means small, poorly fitted or top-dose-only effect, or another doubt; inactive means no such curve, though single readings can be large; an effect the other way counts as inactive or inconclusive. On the % scale 0 is the no-effect control and ±100 the full control effect; potency means the concentration at half of the fitted maximal effect.

mol	DT40 TDP1 CPT	KAT2A inh
COc1cc(CCC(=O)N2CCN(c3ccccc3Cl)CC2)cc(OC)c1OC	12µM*	-1%
CSc1nc2c(c(-c3ccc(O)cc3)c1C#N)CCC2	-14%	-8%
O=S(=O)(c1ccc(NCC2CCCCC2)nc1)N1CCOCC1	-20%	-2%
Cc1nc2c3ccccc3nc(NNC(=O)CCC(=O)N3CCC(C)CC3)n2n1	-20%	6%
CCC(Sc1nc(-c2ccccc2)cc(=O)[nH]1)C(=O)O (stereo unspecified)	?	2%
CCCC1=NN(C(=O)Cc2ccc(OC)cc2)C(O)(C(F)(F)F)C1 (stereo unspecified)	?	-3%
O=C(NC(=S)Nc1ccc(S(=O)(=O)Nc2nccs2)cc1)c1cccnc1	-6%	-3%
Cc1oc(-c2ccc(C(=O)Nc3ccccc3F)cc2)nc1COc1ccccc1	-21%	-1%
CCCCNC(=S)N/N=C/c1cccc(OCC)c1O	1.2µM*	2%
CC1(C(=O)NC2CCCC2)CCC(=O)N1Cc1cccs1 (stereo unspecified)	0%	-3%
COc1cccc(-c2nc(C=O)cs2)c1	?	0%
Cc1ccc(NC(=O)C2CC(=O)N(Cc3ccccc3)C2)cc1S(=O)(=O)N1CCCCCC1 (stereo unspecified)	29µM*	0%
Cc1ccc(C(=O)NN2C(=O)C3C4C=CC(C4)[C@@H]3C2=O)cc1 (stereo partly specified)	-4%	-12%
COc1ccc(OC)c(CN2CCN(Cc3cccc4ccccc34)CC2)c1	?	1%
CC(C)OC(=O)CSc1nnc(-c2ccncc2)n1N	-12%	0%
COc1ccc(C(=O)N2CCCCC2C(=O)Nc2ccc(-n3nc(C)cc3C)cc2)o1 (stereo unspecified)	?	-6%
COC(=O)c1sccc1NC(=O)CCC1CCCCC1	-24%	-2%
CN1C(=O)/C(=C/c2ccc(C(F)(F)F)cc2)Sc2ccc(C(=O)N3CCN(c4ccccn4)CC3)cc21	?	-37%
O=C(NCC(c1cccnc1)N1CCN(c2ccc(F)cc2)CC1)OCc1ccccc1 (stereo unspecified)	?	8%
CCOC(=O)CC1=CSC2=NS(=O)(=O)CCN12	-11%	2%
Cn1cccc1C(=O)NC(=O)COC(=O)c1ccc(O)cc1	6%	-4%
CCN(CCNC(=O)C1CCC(=O)N1Cc1ccc(C)cc1)c1ccccc1 (stereo unspecified)	-19%	-2%
O=C(N/N=C\c1ccc(OCC(=O)N2CCCC2)cc1)C(=O)Nc1ccccc1F	9%	-1%
CCCNCc1cc(OC)c(OCCC)cc1Cl	?	0%
Nc1nc(SCC(=O)Nc2ccc(Cl)c([N+](=O)[O-])c2)n[nH]1	-16%	-2%

Record cards, as listed above.
CC(C)OC(=O)CSc1nnc(-c2ccncc2)n1N in the list: DT40 TDP1 CPT = -12%; KAT2A inh = 0%
CCOC(=O)CC1=CSC2=NS(=O)(=O)CCN12 in the list: DT40 TDP1 CPT = -11%; KAT2A inh = 2%

Carrying on:
mol	DT40 TDP1 CPT	KAT2A inh
C/C(=N\Nc1ccccc1[N+](=O)[O-])c1ccc(N2CCOCC2)cc1	10%	-9%
OC(CNCCc1ccc(Cl)cc1Cl)COc1ccccc1 (stereo unspecified)	?	1%
O=C(CCN1C(=O)C2CC=CCC2C1=O)Nc1cccc(S(=O)(=O)N2CCCCC2)c1 (stereo unspecified)	-15%	1%
O=c1cc(O)c(-c2cccc(C(F)(F)F)c2)c(Cl)[nH]1	0%	0%
CCN(CC)CCNC(=O)CCn1nc(-c2ccc(Cl)cc2)ccc1=O	0%	32%
O=C(c1ccc(Oc2ccc([N+](=O)[O-])cc2Cl)cc1)N1CCCC1	?	-4%
O=C(CN1C(=O)c2cccnc2Oc2ccc(Cl)cc21)N1CCCCCC1	-12%	-5%
O=C(O)c1cccc(NS(=O)(=O)c2ccc(NC(=O)c3ccco3)cc2)c1	2%	-1%
CCCN1Cc2cccc(C(=O)N3CCN(c4ccc(OC)cc4)CC3)c2C1=O	-22%	-6%
Cc1ccc(/C=C/C(=O)OCn2nnc3ccccc3c2=O)o1	-10%	-11%
O=C(O)c1c(Cl)c(Cl)c(Cl)c(Cl)c1C(=O)N1CCOCC1	3%	-5%
O=S(N1CCCCC1)C12CC3CC(CC(C3)C1)C2 (stereo unspecified)	?	-2%
COc1ccc(F)cc1S(=O)(=O)N1CCC2(CC1)OCCN2S(=O)(=O)c1cccs1	?	-6%
O=C(CN1C(=O)CCC1=O)Nc1nc2c(F)cc(F)cc2s1	-16%	.
Cc1cc(OCC(=O)c2ccc(C(F)(F)F)cc2)n2cnnc2n1	0%	-14%
O=C(NCCc1csc(-c2ccc(C(F)(F)F)cc2)n1)C(=O)Nc1cc(F)ccc1F	-1%	-3%
c1coc(CNC2CCCCCCC2)c1	-3%	1%
O=C(OCc1ccc(COC(=O)c2ccc(O)cc2)cc1)c1ccc(O)cc1	-29%	-14%
Cc1ccc(CNC(=O)CC2Oc3ccc(Cl)cc3NC2=O)cc1 (stereo unspecified)	1%	-2%
O=C(CSc1nnc(CNC(=O)c2ccco2)o1)Nc1cccc(Cl)c1	7%	-8%
CCOC(=O)C1=C(COC(=O)/C=C/c2ccc(OCC)c(OC)c2)NC(=O)NC1C (stereo unspecified)	-5%	-6%
CC(C)(C)c1ccc(C(=O)NCCc2ccccc2)cc1	-21%	-5%
C=CCn1c(SCC(=O)Nc2sc3c(c2C#N)CCC3)nnc1C1COc2ccccc2O1 (stereo unspecified)	-3%	-8%
C/C(=N\N=C1\NC(=O)C(CC(=O)NCc2ccccc2)S1)C(C)C (stereo unspecified)	17%	-6%
Cc1ccc(CNC(=O)Cn2nc(N3CCN(c4ccccc4)CC3)ccc2=O)cc1	-3%	18%

Gathered by group: those above containing an NH in an aromatic ring
mol	DT40 TDP1 CPT	KAT2A inh
CCC(Sc1nc(-c2ccccc2)cc(=O)[nH]1)C(=O)O (stereo unspecified)	?	2%
Nc1nc(SCC(=O)Nc2ccc(Cl)c([N+](=O)[O-])c2)n[nH]1	-16%	-2%
O=c1cc(O)c(-c2cccc(C(F)(F)F)c2)c(Cl)[nH]1	0%	0%

(further entries)
mol	DT40 TDP1 CPT	KAT2A inh
Cc1cc(C)n(-c2nc(SCC(=O)O)c3c4c(sc3n2)COC(C)(C)C4)n1	?	1%
CSc1cccc(NC(=O)Nc2ccccc2)c1	-26%	1%
CCOc1ccccc1NC(=O)CC1(CC(=O)N2CCOCC2)CCCC1	1%	?
CCc1ccccc1NC(=O)C(Cc1cccc(OC)c1OC)c1nn[nH]n1 (stereo unspecified)	2%	0%
Cc1nc2ccn(Cc3ccccc3)c(=O)c2cc1C(=O)NCc1ccccc1F	?	-3%
CC(C)Oc1ccc(C(=O)OCC(=O)c2ccc[nH]2)cc1	3%	-7%
Cc1ccsc1/C=N/NC(=O)c1ccc([N+](=O)[O-])cc1	-9%	-5%
CCOC(=O)c1c(NC(=O)CSC2=NN3CCCC(=O)N=C3S2)sc2c1CCCCC2	21µM*	1%
Cc1ccc(C(=O)N2N=C(c3cccc(NS(C)(=O)=O)c3)CC2c2cccs2)cc1 (stereo unspecified)	?	-4%
NC(N)=NS(=O)(=O)c1ccc(NC(=S)NC(=O)c2ccccc2)cc1	4%	-3%
Cc1ccc(S(=O)(=O)/N=C/c2ccc(N(C)C)cc2)cc1	-5%	-14%
CC(=O)c1ccc(OCc2cc(C(=O)NCC3CCCCO3)no2)cc1 (stereo unspecified)	?	-4%
Cc1ccc(NC(=O)CS(=O)CC(=O)Nc2cccc(C)c2C)cc1F (stereo unspecified)	15%	1%
CC(C)N(C(=O)Cn1c(SCC(=O)N2CCN(c3ccccc3)CC2)nc2ccccc21)C(C)C	0%	0%
O=C(NCc1ccco1)c1ccc(CS(=O)(=O)Cc2ccc(F)cc2)o1	-9%	-3%
COc1ccc(OC)c(NC(=O)c2cc(S(=O)(=O)NCc3ccco3)ccc2F)c1	-15%	-10%
CC1Cc2cc(/C(O)=C3/C(=O)C(=O)N(Cc4ccco4)C3c3cccs3)ccc2O1 (stereo unspecified)	8%	?
Cc1cc(C)c(C#N)c(N2CCN(Cc3ccc4c(c3)OCO4)CC2)n1	?	3%
CCCn1nc(NS(=O)(=O)c2ccc(F)cc2)c2cc3ccccc3nc21	-6%	2%
O=C(Cn1nc(Cl)nc1Cl)Nc1ccccc1	3%	1%
CCN(CC)CCN(C(=O)c1ccc([N+](=O)[O-])cc1)c1nc2c(OC)cccc2s1	-12%	-6%
Cc1ccc(NC(=O)CSc2nc3ncc(Br)cc3[nH]2)cc1C	?	-4%
CCOC(=O)c1nn(-c2ccccc2)c(=O)cc1SC1CCCCC1	-10%	20%
OCCCn1c(-c2ccccc2)n[nH]c1=S	-18%	-3%
COCCNC(=O)c1ccccc1N(Cc1ccccc1)S(=O)(=O)c1ccccc1	-10%	.
COc1cccc2c(=O)ccoc12	2%	0%
O=C(CSc1nc(C(F)(F)F)cc(=O)[nH]1)N1CCC(Cc2ccccc2)CC1	-11%	-18%
Cc1cccc(NC(=O)/C(C#N)=C/c2cn(CC(=O)NCc3ccco3)c3ccccc23)c1	-22%	-2%
O=c1/c(=C/c2ccccn2)sc2nc3ccccc3n12	4%	-4%
COc1ccc(NC(=O)c2cc(-c3cc(C)cc(C)c3O)n[nH]2)cc1Cl	21µM*	-14%
C=C1CCC[C@]2(C)C[C@H]3OC(=O)C(CNCCN(C)C)[C@H]3CC12 (stereo partly specified)	?	-8%
c1ccc2c(c1)ncn2CCN1CCCCC1	-3%	-5%
COc1ccc(Cn2c(=O)[nH]c3cc(C(=O)NCCCOC(C)C)ccc3c2=O)cc1	-14%	-10%
CCOC(=O)CCc1c(C)c2ccc(OC(C)C(=O)OCC)c(C)c2oc1=O (stereo unspecified)	-12%	.
COc1ccc(/C=N/n2cnnc2)cc1Cn1nc(C)c([N+](=O)[O-])c1C	0%	1%
COC(=O)/C=C/c1sc2nc(C)cc(C)c2c1N=CN(C)C	-21%	-10%
CCN(Cc1ccccc1)C(=O)Cn1c(=O)n(-c2ccc(OC)cc2OC)c(=O)c2c(C)c(C)sc21	?	-11%&-3%
CCOC(=O)N1CCN(Cc2nc3cc(NC(=O)c4ccco4)ccc3n2C)CC1	-1%	-21%
COc1ccc(NC(=O)C2Cc3ccccc3CN2C(=O)c2ccccc2)cn1 (stereo unspecified)	-6%	1%
O=C1CN(S(=O)(=O)c2cc(Cl)ccc2Cl)CCN1	3%	-5%
O=C(CSc1nnc2ccccn12)c1ccc(Cl)cc1	-4%	0%
CC1(C)CCC[C@@]2(C)CC=C(C(=O)O)[C@@H]3C[C@]312	0%	-8%
Cc1cc2oc(=O)cc(CN3CCN(S(=O)(=O)c4cccs4)CC3)c2cc1C(C)C	23µM*	9%
O=C(NCc1ccco1)c1cc(-c2ccccc2)nc2ccccc12	2%	-2%
O=C(NCc1nnnn1-c1ccc(F)cc1)C1CC(=O)N(c2ccc(F)cc2)C1 (stereo unspecified)	-15%	-10%
C=CCn1c2ccccc2c2nnc(SCc3[nH]c(=O)[nH]c3C(=O)CCCCC(=O)OCC)nc21	?	3%
O=C(COc1ccc(Cl)cc1)Nc1ccccc1C(=O)NCc1ccco1	-19%	-8%
Cc1ccc(S(=O)(=O)Nc2c(C)nc3nc(C)[nH]n3c2=O)cc1	-14%	-6%
CC(=O)OC(C(=O)NC1CCCCC1)c1ccccc1 (stereo unspecified)	-4%	-4%
Cc1ccnc(SC2CC(=O)N(c3ccc(Cl)cc3)C2=O)n1 (stereo unspecified)	-29%	-10%

Next part
mol	DT40 TDP1 CPT	KAT2A inh
CCOc1ccc(C(=O)COC(=O)c2cc(=O)[nH]c3ccccc23)cc1	-1%	-4%
CCCN(CCC)CCCNC(=S)Nc1ccc2nc3n(c(=O)c2c1)CCCCC3	?	1%
O=C(NCc1ccccn1)Nc1ccccc1Cl	-10%	-5%
Cc1ccc(CC(NC(=O)c2ccc(C)cc2)C(=O)O)cc1 (stereo unspecified)	7%	-3%
C=CCNC(=O)COC(=O)c1ccc(Cl)c(S(=O)(=O)N(Cc2ccccc2)c2ccccc2)c1	?	-12%
O=C(CCc1nc2ccccc2[nH]c1=O)OCC(=O)N1CCc2ccccc21	3%	-1%
Cc1ccc(F)cc1CNC(=O)C1CCC(=O)N(CCCN2CCCC2=O)C1 (stereo unspecified)	6%	-1%
O=C(Cn1cnc2onc(-c3ccc(F)cc3)c2c1=O)Nc1ccc(F)c(Cl)c1	9.2µM*	1%
Cn1nc(C(F)(F)F)c(-c2ccc(F)cc2)c1NC(=O)c1ccco1	-21%	-9%

Not all compounds are listed, and most or all hits are left out here.
